Assay outcomes from PubChem BioAssay.
VACV mCherry inh: qHTS for Stage-Specific Inhibitors of Vaccinia Orthopoxvirus: mCherry Reporter Primary qHTS | 310,000 compounds, 0.63% hits | Potency, µM (top dose mostly 36.5 µM), inactives show at the highest dose activity change, negative = inhibition, most hits filed as inhibitors | AID 720579, 2013 | Vaccinia virus mCherry reporter infection, fluorescence; about a quarter of the inactives have no number; active = well fitted inhibition curve with a large enough effect; inconclusive = small, poorly fitted or top-dose-only effect; inactive = no such curve, though single readings can be large or run the other way; tested in A549 cells; also: nearly all actives have a fitted effect of over 35% in size; inactives centre near -10
Vaccinia Venus: qHTS for Stage-Specific Inhibitors of Vaccinia Orthopoxvirus: Venus Reporter Primary qHTS; Vaccinia virus Venus reporter expression, fluorescence; Potency, µM (doses to about 36.5 µM), for the others: top-dose activity change, negative = inhibition, usual class: inhibitors; 330,000 compounds, 0.46% hits; AID 720580, 2013; active means well fitted inhibition curve with a large enough effect; inconclusive means small, poorly fitted or top-dose-only effect; inactive means no such curve, though single readings can be large or run the other way; tested in A549 cells; also: nearly all actives have a fitted effect of over 30% in size; inactives centre near -10
Numbers without * were called inactive; i = inactive; ? = inconclusive; · = not tested or not shown; & = joins results of further samples; [ ] = dose if it differs, or a comment. % is scaled to controls: 0 for no effect and ±100 for the full control effect; potency is read from the fitted curve at half-maximal effect.

Sample of the layout, three compounds:
SMILES	VACV mCherry inh	Vaccinia Venus
CC1(C)C2CCC1(C)C(OC(=O)CC(=O)O)C2 (centres undefined)	-7%	7%
Cc1cccc2cc(CN(CCN3CCOCC3)C(=O)Nc3ccccc3F)c(=O)[nH]c12	-11%	-11%
COC(=O)C1=C(c2ccccc2OCc2ccccc2)C[C@@H]2CC[C@H]1N2C(=O)NCCc1ccc(F)cc1	-19%	?

The listing, from the start:
SMILES	VACV mCherry inh	Vaccinia Venus
CC1(C)C2CCC1(C)C(OC(=O)CC(=O)O)C2 (centres undefined)	-7%	7%
Cc1cccc2cc(CN(CCN3CCOCC3)C(=O)Nc3ccccc3F)c(=O)[nH]c12	-11%	-11%
COC(=O)C1=C(c2ccccc2OCc2ccccc2)C[C@@H]2CC[C@H]1N2C(=O)NCCc1ccc(F)cc1	-19%	?
COc1ccc2c(c1)-c1c(sn(-c3ccccc3)c1=S)C(C)(C)N2	-19%	-23%
Cn1c(N)c(C(=O)COC(=O)CNC(=O)c2ccc(Cl)cc2Cl)c(=O)n(C)c1=O	-13%	2%
O=C(CSc1nnc(-c2ccc(Br)cc2)n1CCc1ccccc1)NC1CCS(=O)(=O)C1 (centres undefined)	i	5%
COc1ccc(N2CC(NS(=O)(=O)c3cccnc3)CC2=O)cc1OC (centres undefined)	-15%	-19%
CCC(C)Oc1nc(C)cc(C)c1S(=O)(=O)c1ccccc1C (centres undefined)	·	-21%
CN(CC(=O)NCc1ccccc1Cl)S(=O)(=O)c1cccs1	-6%	-7%
O=C(Nc1cccc(F)c1)Nc1nnc([C@@H]2O[C@H](CO)[C@@H](O)[C@H]2O)s1	18%	11%
COc1ccc(N2CCN(C(=O)/C=C/[C@H]3O[C@@H](n4ccc(=O)[nH]c4=O)[C@H](O)[C@@H]3O)CC2)cc1	11%	-5%
CC(=O)C(Cc1ccccc1)NC(=O)CN1CCN(Cc2ccccc2)CC1 (centres undefined)	-22%	-14%
Cc1nn2c3c(cnc2c1-c1ccc(Cl)cc1)C(=O)CC(c1ccc(C(C)C)cc1)C3 (centres undefined)	-10%	-1%
COc1ccc(C2CC(c3cccs3)=NN2c2ccc(F)cc2)cc1OC (centres undefined)	-16%	-13%
CCOC(=O)c1[nH]c(C)c(CCC(=O)NCc2ccc(C)cc2)c1C	-6%	-6%

Compound profiles, as listed above.
Cn1c(N)c(C(=O)COC(=O)CNC(=O)c2ccc(Cl)cc2Cl)c(=O)n(C)c1=O as listed: VACV mCherry inh: -13%; Vaccinia Venus: 2%
CN(CC(=O)NCc1ccccc1Cl)S(=O)(=O)c1cccs1 as listed: VACV mCherry inh: -6%; Vaccinia Venus: -7%

Additional structures
SMILES	VACV mCherry inh	Vaccinia Venus
O=C(Nc1ccc2c(c1)N(C1CCCC1)C(=O)c1ccccc1S2)c1ccccc1	-8%	-5%
CCOC(=O)C1=C(COC(=O)c2cccc(N(C)C)c2)NC(=O)NC1C (centres undefined)	-17%	-7%
CNC(=O)NC(=O)COC(=O)CCCSc1nc2ccccc2s1	-10%	1%
O=c1c2cc3c(cc2[nH]c(=S)n1Cc1ccco1)OCO3	-8%	-26%
Cc1nc2ccccn2c1C(=O)CSc1cccc(Cl)c1	i	-16%
Cc1ccc(C(C)C)c2oc(=O)cc(-c3ccc(-c4ccc(C(F)(F)F)cc4)cc3)c12	i	-18%
CN(C)c1ccc(C=C2C(=O)NC(=S)NC2=O)cc1	-18%&29%	-9%&4%
O=C1CC[C@@H]2C[C@@]3(C[C@@H]4CCN1[C@H]24)Nc1cc([N+](=O)[O-])ccc1NC3=NCc1ccccc1	?	?
COc1ccccc1-n1cnc2cc(NCc3ccco3)ccc21	?	?
COc1cccc(-c2nc3nc(C)cc(C)n3c2NC2CCCCC2)c1	-16%	-7%
Cc1ccn2c(C(=O)N/N=C\c3ccccc3[N+](=O)[O-])c(C)nc2c1	i	-8%
CC(C)C[C@@H](C(=O)NC1CCN(Cc2ccccc2)CC1)N1C(=O)N2CCc3c([nH]c4ccccc34)[C@@]2(C)C1=O	-21%	-15%
O=C(CCCN1C(=O)/C(=C/c2cccc(Br)c2)SC1=S)NCCCN1CCOCC1	71%[activator]	410%[activator]
CC(C)=CCC[C@H](C)C[C@@H]1Cc2[nH][nH]c(=O)c2[C@H](c2ccc(Cl)cc2)O1	2%	-17%
CN1CCCN(Cc2nc(-c3ccc(Cl)cc3)no2)CC1	-6%	1%
C=Cc1ccc(Cn2nc(-c3ccc(C)cc3)ccc2=O)cc1	-10%	-19%
O=c1c2[nH]c3ccc(F)cc3c2ncn1CCCN1CCOCC1	·	-13%
COC(=O)CC1[C@@]2(C)C[C@]34OC5(C)OC6(C7CC(=O)OC(c8ccoc8)[C@]7(C)CCC6(O5)[C@]13C)C(OC(C)=O)[C@]4(OC(C)=O)C2OC(C)=O (some centres undefined)	-9%	1%
COc1ccc(C)cc1N(CC(=O)N/N=C/c1ccccc1C(=O)O)S(=O)(=O)c1ccccc1	i	0%
CC(Oc1ccccc1)C(=O)Nc1cc(Cl)ccc1-n1cncn1 (centres undefined)	i	-15%
COc1ccc(OC)c(N(CC(=O)NCCSCc2ccco2)S(=O)(=O)c2ccccc2)c1	-7%	-10%
Cc1ccc(C)c(NC(=O)CCn2nc(C)cc2C)c1	·	-7%
C[C@@H]1CCCCO[C@@H](CN(C)C(=O)c2ccccc2)[C@@H](C)CN([C@H](C)CO)C(=O)c2cc(N(C)C)ccc2O1	-4%	-4%
CNC(=O)c1ccc(-c2sc3nc(N4CCOCC4)c4c(c3c2N)CC(C)(C)OC4)o1	-12%	-4%
CC(COc1ccccc1)N1CCC(CO)(CCc2ccccc2)CC1 (centres undefined)	-26%	-20%
COCCCNC(=O)C1CCN(Cc2cc3ccccc3n2Cc2cccc(C)c2)CC1	-17%	-9%
Cc1ccc(C(=O)NCC(=O)NC2CCCC2)cc1	-4%	-6%
CCN(CC)CCNc1cccc2sc3ccccc3c(=O)c12	?	?
CN(CC(=O)NCCCN1CCOCC1)S(=O)(=O)c1ccc(Cl)cc1	-17%	-6%
COc1ccc(C2C(C(=O)Nc3ccccc3)=C(C)Nc3nc(SCC(=O)c4ccc(C)cc4)nn32)cc1 (centres undefined)	-16%	-3%
CC1(C(=O)NS(=O)(=O)c2cccs2)CCN1C(=O)Cc1ccc(-c2ccccc2)cc1 (centres undefined)	i	-5%
COC(=O)c1ccc(C(=O)O)nc1	-13%	-12%
CCOC(=O)N1CCC(NC(=O)c2cc3c(C)nc4ccccc4c3o2)CC1	-9%	-21%
Cc1ccc(S(=O)(=O)N(C)C[C@@H]2Oc3ccc(NS(=O)(=O)c4ccccc4)cc3CC(=O)N([C@@H](C)CO)C[C@H]2C)cc1	-11%	-8%
CCOc1ccccc1NC(=O)C1Cc2ccccc2CN1S(C)(=O)=O (centres undefined)	i	-19%
O=C(Oc1cccc(NC2=NS(=O)(=O)c3ccccc32)c1)c1cccnc1	i	-7%
O=c1[nH]c2ccc(F)cc2[nH]c1=O	i	-7%
COc1ccc(NC(=O)c2ccc3nc(CCc4ccccc4)oc3c2)c(OC)c1	-16%	-2%
CN1C(C(=O)NCc2ccco2)CC2Cn3c(nc4cc5ccccc5cc43)C21 (centres undefined)	-17%	-22%
CCOc1ccc(/C=N/NC(=O)c2ccc3nc[nH]c3c2)cc1OC	i	-4%
CCc1ccc(NC(=O)C2CCN(c3ncnc4c3nc3n4CCCCC3)CC2)cc1	-4%	-9%
CCOC(=O)/C(C(=O)Nc1ccccc1Br)=C1/NC(C)(C)Cc2ccccc21	-4%	-8%
NS(=O)(=O)c1ccc(CNC(=O)c2cnccn2)cc1	-7%	3%
CC(=O)c1sc(N/N=C\c2ccc(Br)cc2)nc1C	-25%	?
COc1ccc(NC(=O)CC2C(=O)N(c3ccc(OC)cc3)C(=O)N2Cc2ccc(OC)c(OC)c2)cc1 (centres undefined)	-7%	-6%

3 structures already listed, sorted by heavy-atom count, low to high.
SMILES	VACV mCherry inh	Vaccinia Venus
O=c1[nH]c2ccc(F)cc2[nH]c1=O	i	-7%
CCOC(=O)/C(C(=O)Nc1ccccc1Br)=C1/NC(C)(C)Cc2ccccc21	-4%	-8%
COc1ccc(NC(=O)c2ccc3nc(CCc4ccccc4)oc3c2)c(OC)c1	-16%	-2%

Going on with the list.
SMILES	VACV mCherry inh	Vaccinia Venus
CC(=O)c1ccc(N2CCN(C(=O)CN(C)S(=O)(=O)c3cnc[nH]3)CC2)cc1	-1%	-4%
CCOc1cccc2cc(C(=O)NCc3ccc(OC)cc3)c(=N)oc12	-2%	-10%
C=CCn1c(C)c(C(C)=O)c(N2CCN(c3ccccc3)CC2)nc1=S	·	-3%
Cc1cccc(Nc2nnc(SC/C(O)=C(\C#N)c3nc4ccccc4[nH]3)s2)c1	-7%	-9%
Cc1cccc(-c2nnc(SCC(=O)NCc3ccc4c(c3)OCO4)n2C)c1	·	6%
CCCCc1nc2ccccc2c(NC(=O)CNC(C)(C)C)c1CCC	-24%	-13%
COc1ccc(Cc2c(-c3ccccc3)nc3c(C)cc(Br)cn23)c(C)c1	-10%	3%
CC(C)C[C@H](NC(=O)c1nc[nH]c1C(=O)NCC(=O)OCc1ccccc1)C(=O)OC(C)(C)C	i	-9%
COC(=O)C1C(c2ccc(Cl)cc2)NC(c2ccc(Cl)cc2)C(C(=O)OC)S1(=O)=O (centres undefined)	i	-10%
N#Cc1ccc(C(=O)Nc2ccc3c(c2)N(C2CCCC2)C(=O)c2ccccc2S3)cc1	14%	-4%
O=[N+]([O-])c1cccc(-c2cc(-c3cc(Br)ccc3O)[nH]n2)c1	?	?
Fc1ccc(-c2csc(-c3ccccn3)n2)cc1F	-1%	-11%
Cc1cc(C)cc(NC(=O)CN(Cc2ccccc2)S(C)(=O)=O)c1	-16%	-18%
CCOC(=O)Cc1csc(NC(=O)NC2(C(F)(F)F)Oc3cc(Cl)c(Cl)cc3O2)n1	·	-22%
O=C(CCNc1n[nH]c(=O)[nH]c1=O)N/N=C\c1cccc(OCc2ccccc2)c1	i	-3%
COC(=O)c1ccc2nc(-c3cccc(Br)c3)c(Cc3ccccc3C(F)(F)F)n2c1	-5%	9%
CC(=O)Oc1ccc2nc(/C=C/c3ccc(C=O)cc3)oc(=O)c2c1	i	-12%
COc1cccc(C(=O)NCCN2CCOCC2)c1	-2%	-5%
Cc1cc(Oc2cc(N)cc([N+](=O)[O-])c2)ccc1Cl	-23%	-26%
O=C(COC(=O)/C=C/c1cccc(Cl)c1)NCCc1ccc(Cl)cc1Cl	-2%	-23%
O=C(Nc1ccc(S(=O)(=O)Nc2nccs2)cc1)c1ccc(N2C(=O)c3ccccc3C2=O)cc1	-9%	-3%
COc1ccc(C2C3=C(CCCC3=O)NC3=C2C(=O)c2ccccc23)cc1 (centres undefined)	-24%	-21%
Cc1ccccc1C(=O)N1CCC(C(=O)Nc2ccc(F)cc2)CC1	-17%	-13%
Cc1noc(C)c1C(=O)OCC(=O)NC1CCCCC1C (centres undefined)	i	-10%
COc1cccc(N2CC(O)=C(c3nc4ccccc4c(=O)[nH]3)C2=N)c1	?	2.8µM*
CCOc1cccc(OCCNC2CCCC2)c1	i	-21%
CCCS(=O)(=O)c1nc(S(=O)(=O)c2ccc(C)cc2)c(N2CCCCC2)s1	-8%	-29%
CCNS(=O)(=O)c1cc(-c2nnc(Nc3cccc(C(F)(F)F)c3)c3ccccc23)ccc1C	-15%	-17%
O=C(NCc1ccccc1)C1CCN(c2ncnc3c2nc2n3CCCCC2)CC1	i	-7%
CN(C(=O)c1cccc(NC(=O)Cc2cccc(NC(=O)C3CCCN(C(=O)C4CCC4)C3)c2)c1)C1CC1 (centres undefined)	-13%	3%
Cc1c(C(=O)NCc2ccc(F)cc2)sc(=O)n1Cc1ccc(C(=O)c2ccccc2)cc1	1%	-12%
O=C(c1ccc(S(=O)(=O)N2CCCCCC2)cc1)N1CCC(CN2C(=O)c3cccc4cccc(c34)C2=O)CC1	·	?
O=S1(=O)CCOC[C@H](CC2CCCCC2)N1Cc1cccc(C(F)(F)F)c1	?	-29%&-15%
Cc1cnc(NC2=NCCC2)s1	i	-4%
CC(=Nc1ccccc1)C1=C(O)CSC1=O	-11%	5%
CCN1CCN(Cc2nc3c(c(=O)n(C)c(=O)n3C)n2Cc2cccc3ccccc23)CC1	-13%	-9%
Cc1ccc(S(=O)(=O)N2C3C=CC(C3)C2C(=O)O)cc1 (centres undefined)	i	-9%
CCOc1cccc(/C=C/C(=O)O)c1	i	-9%
O=C(NC(Cc1c[nH]c2ccccc12)C(=O)O)c1ccc(F)cc1 (centres undefined)	i	-21%
CCn1c(C(C)C)n[nH]c1=S	i	-8%
COc1cccc(-c2nnn(CC(=O)N(C3CCCCC3)C3CCS(=O)(=O)C3)n2)c1 (centres undefined)	i	-10%
C[C@@H]1CN([C@@H](C)CO)C(=O)c2cc(Br)cnc2O[C@H]1CN(C)C(=O)Cc1ccccn1	-13%	-20%
CC(C)C1C(=O)N(Cc2cn(CC3CCCCC3)nn2)CCS(=O)(=O)N1Cc1ccc(-c2ccc(F)cc2)cc1 (centres undefined)	?	?
Cc1ccc(C(=O)Oc2oc(-c3ccco3)nc2C=Nc2ccc(Cl)cc2)cc1	i	-19%
